liver stage: exo-erythrocytic parasite development inhibition – imaging, Malaria Box, P. yoelii, HepG2-A16-CD81EGFP, dose response (AID 602156). hit rate 4.8% among 5,700. calls after a first round at 10 µM; hits with a dose series show IC50 in µM. P. yoelii liver stage in HepG2-A16-CD81EGFP, imaging; first-round cut-off not given here; in the data active means a potency from the dose series;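 further: infected cells exposed to compound for 48 hours before fixation; stained parasite area by imaging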
Starred values were filed as active, the others as inactive; i = inactive. These rows are one share of the data, so the mix of outcomes need not match the whole.

SMILES	liver stage
CN(CCCNc1ccnc2cc(Cl)ccc12)C(=O)C(C)(C)C	i
CCCCCCC(=O)Oc1ccccc1-c1nc2cc(C)ccn2c1NC(C)(C)CC(C)(C)C	i
CCOc1ccc(C2c3[nH]c4ccccc4c3CCN2C(=O)c2cc3cc(Br)ccc3o2)cc1 (centres undefined)	i
COc1ccc(-c2nc(-c3ccc(-c4[nH]c(-c5ccc(OC)cc5)nc4-c4ccccc4)cc3)c(-c3ccccc3)[nH]2)cc1	i
CC(C)CN1C(=O)c2ccccc2C(C(=O)Nc2cc(F)ccc2F)C1c1cccs1 (centres undefined)	i
Cc1cccc2cc(C(c3nnnn3C3CCCC3)N3CCCC4(CCCCC4)C3)c(=O)[nH]c12 (centres undefined)	i
O=[N+]([O-])c1ccc(C=NNc2nc(Nc3ccccc3)nc(Nc3ccccc3)n2)o1	i
CC(C)(C)CC(C)(C)Nc1c(-c2ccccc2OC(=O)C2CCC2)nc2ccccn12	i
Cc1ccc2nc(Nc3ncc4c(n3)CC(C)(C)CC4=O)nc(C)c2c1	i
CC(=O)N1c2ccccc2NC2=C(C(=O)CCC2)C1c1ccc([N+](=O)[O-])cc1 (centres undefined)	i
O=C(Cc1cccs1)N1CCC(n2c(Cc3ccc(F)cc3)nc3cccnc32)CC1	i
Oc1ccc(-c2ccc(F)cc2)cc1CN1CCCCCC1	i
CC(C)(C)CC(C)(C)Nc1c(-c2ccccc2OC(=O)c2ccco2)nc2ccccn12	i
O=c1nc(/C=C/c2ccc(Cl)cc2)oc2ccccc12	i
N#Cc1c2c(c(N3CCN(C4CCCCC4)CC3)n3c1nc1ccccc13)CCC2	i
COC(=O)C1=C(C)NC2=C(C(=O)CC(c3ccc(OC)c(OC)c3)C2)C1c1ccccc1Br (centres undefined)	i
Cc1ccn2c(NC(C)(C)CC(C)(C)C)c(-c3ccccc3OC(=O)c3ccc(C)c([N+](=O)[O-])c3)nc2c1	i
C1CCC(CN2CCc3nc(N4CCCCC4)sc3C2)CC1	i
O[C@H]1[C@H]2c3cc4c(cc3CN3CCC(=C[C@@H]1O)[C@H]23)OCO4	i
COc1cccc(C(NC(=O)c2ccccc2)c2ccc3cccnc3c2O)c1 (centres undefined)	i
COc1ccc(OC)c(-c2ccc(C(=O)N3CCN(C/C=C/c4ccccc4)CC3)c(N(C)C)n2)c1	i
CCN1C(=Cc2ccc3ccccc3[n+]2CC)Sc2ccc(I)cc21	i
O=C(Nc1ccc(C2=NCCN2)cc1)c1ccc(-c2ccc(C(=O)Nc3ccc(C4=NCCN4)cc3)cc2)cc1	i
CCCCNC1=CC(=O)C(=O)c2ccccc21	i
Brc1ccc(Nc2nc(NCc3ccco3)c3ccccc3n2)cc1	0.16µM*
Clc1ccc(-c2c[n+]3c(n2-c2ccccc2)CCC3)cc1	i
COc1cccc(C(=O)C[n+]2cc(-c3ccc(Cl)cc3)n3c2CCC3)c1	i
COCCNC(=O)[C@@H]1C[C@@H](NCCC2=C(C)CCCC2(C)C)CN1C(C)C	i
CCOC(=O)C1=C(C)NC2=C(C(=O)CC(c3ccc(OC)cc3)C2)C1c1cccc(F)c1 (centres undefined)	i
Cc1ccc(NC(=O)COc2ccc(Cl)cc2Cl)nc1	i
NS(=O)(=O)c1ccc(CCNC(=O)/C=C/c2ccc3c(c2)OCO3)cc1	i
CCOC(=O)C1=C(C)N=c2sc(=Cc3cccc(OCc4cccc5ccccc45)c3)c(=O)n2C1c1ccc(OC)cc1OC (centres undefined)	i
CC1C/C(=C/c2ccncc2)C(=O)/C(=C/c2ccncc2)C1 (centres undefined)	i
COc1ccc(C(NC(=O)c2cccnc2)c2cc(Cl)c3cccnc3c2O)cc1 (centres undefined)	0.54µM*
Cc1ccc(NC(=O)C2c3ccccc3C(=O)N(CC(C)C)C2c2cccs2)c(Cl)c1 (centres undefined)	i
COc1cc(Nc2cncc(-c3ccncc3)n2)cc(OC)c1OC	i
CCOC(=O)C1=C(C)NC2=C(C(=O)CC(c3ccc(OC)c(OC)c3)C2)C1c1cccc(C)c1 (centres undefined)	i
Cc1c(C)n(Cc2ccc(F)cc2)c2ccc(C(=O)NCc3ccco3)cc12	i
Cc1nn(CC(O)Cn2c3ccc(Cl)cc3c3cc(Cl)ccc32)c(C)c1Br (centres undefined)	i
c1cc(-c2cccc3cccnc23)nc(N2CCN(CCN3CCCC3)CC2)c1	i
c1ccc(CN2CCC(Nc3ncnc4cc(-c5ccccc5)sc34)CC2)cc1	i
O=S(=O)(Oc1ccc2ccccc2c1Cc1c(OS(=O)(=O)c2ccccc2)ccc2ccccc12)c1ccccc1	i
CN(CCCNc1ccnc2cc(Cl)ccc12)C(=O)c1ccc(C(C)(C)C)cc1	i
CCN1CCN(c2cc(C)c(C#N)c3nc4ccccc4n23)CC1	i
CC(C)(C)NC(=O)C(C1CC1)N1C(=O)c2cc(O)ccc2NC(=O)[C@@H]1CCCCN (some centres undefined)	i
Cc1ccc2nc(-c3ccccc3)cc(C(=O)Nc3ccc(Cl)c(Cl)c3)c2c1	i
O=C(Nc1ccc(-c2nc3ccccc3[nH]2)cc1)c1ccccc1Oc1ccccc1	i
Cc1cccc(N2C(N)=NC(N)=NC2(C)C)c1	0.0043µM*
CCOC(=O)C1=C(C)NC2=C(C(=O)CC(c3ccc(OC)cc3)C2)C1c1ccccc1F (centres undefined)	i
Cc1cnc(C)c(-c2ccc(O)c(CNCC3(N4CCCCC4)CCCCC3)c2)n1	i
Cc1ccc2[nH]c3c(NCCN(C(C)C)C(C)C)ncnc3c2c1	i
OC(CNCc1ccccc1)Cn1c2ccc(Br)cc2c2cc(Br)ccc21 (centres undefined)	i
CCN(CC)CCNC(=O)c1cc(-c2cc3ccccc3s2)cc(-n2cnnn2)c1	i
CC(C)(C)c1ccc(/C=C/C(=O)NCc2ccco2)cc1	i
COCCCNC(=O)c1cc(NC(=O)CCCCl)ccc1N1CCc2ccccc2C1	i
CCOc1cc(C2CC(=O)NC3=C2C(=O)CC(c2ccc(OC)c(OC)c2)C3)ccc1O (centres undefined)	i
CCCCCCN(C(=O)c1ccc(CCCCC)cc1)C(CC)c1nc2ccccc2c(=O)n1-c1ccccc1OC (centres undefined)	i
O=C(NC(=CC=Cc1ccccc1)C(=O)N1CCCCC1)c1ccc([N+](=O)[O-])cc1	i
COc1ccc(-c2cc(C(=O)NCc3cccnc3)no2)cc1OC	i
Cc1nc(-c2ccccc2)nc(C(=O)N2CCN(S(=O)(=O)/C=C/c3ccccc3)C(C)C2)c1C(=O)OCC(C)C (centres undefined)	i

Part of the list above in order of SMILES length, high to low:
SMILES	liver stage
Cc1nc(-c2ccccc2)nc(C(=O)N2CCN(S(=O)(=O)/C=C/c3ccccc3)C(C)C2)c1C(=O)OCC(C)C (centres undefined)	i
O=S(=O)(Oc1ccc2ccccc2c1Cc1c(OS(=O)(=O)c2ccccc2)ccc2ccccc12)c1ccccc1	i
CCCCCCN(C(=O)c1ccc(CCCCC)cc1)C(CC)c1nc2ccccc2c(=O)n1-c1ccccc1OC (centres undefined)	i
CC(C)(C)NC(=O)C(C1CC1)N1C(=O)c2cc(O)ccc2NC(=O)[C@@H]1CCCCN (some centres undefined)	i
O=C(NC(=CC=Cc1ccccc1)C(=O)N1CCCCC1)c1ccc([N+](=O)[O-])cc1	i
CCOC(=O)C1=C(C)NC2=C(C(=O)CC(c3ccc(OC)cc3)C2)C1c1ccccc1F (centres undefined)	i
CCOc1cc(C2CC(=O)NC3=C2C(=O)CC(c2ccc(OC)c(OC)c2)C3)ccc1O (centres undefined)	i
O=C(Nc1ccc(-c2nc3ccccc3[nH]2)cc1)c1ccccc1Oc1ccccc1	i
CN(CCCNc1ccnc2cc(Cl)ccc12)C(=O)c1ccc(C(C)(C)C)cc1	i
Cc1nn(CC(O)Cn2c3ccc(Cl)cc3c3cc(Cl)ccc32)c(C)c1Br (centres undefined)	i
c1ccc(CN2CCC(Nc3ncnc4cc(-c5ccccc5)sc34)CC2)cc1	i
OC(CNCc1ccccc1)Cn1c2ccc(Br)cc2c2cc(Br)ccc21 (centres undefined)	i
Cc1ccc2[nH]c3c(NCCN(C(C)C)C(C)C)ncnc3c2c1	i
COc1ccc(-c2cc(C(=O)NCc3cccnc3)no2)cc1OC	i
CC(C)(C)c1ccc(/C=C/C(=O)NCc2ccco2)cc1	i
Cc1cccc(N2C(N)=NC(N)=NC2(C)C)c1	0.0043µM*

(continued)
SMILES	liver stage
O=C(Nc1ccc(SC(F)(F)F)cc1)Nc1cccnc1N1CCC(C(F)(F)F)CC1	i
Cc1cc(C)n(CC(O)Cn2c3ccc(I)cc3c3cc(I)ccc32)n1 (centres undefined)	i
CC[C@@H]1CCC[C@H](C)CC[C@@H](O[C@@H]2O[C@@H](C)[C@@H](O)[C@@H](N)[C@H]2O)[C@H](CC)CCCNC1=O	i
Cc1ccc2nc(-c3ccc(O)cc3)oc2c1	i
Cc1ccc(CN2CCN(Cc3cn(C(C)C)c4ccccc34)CC2CCO)o1 (centres undefined)	i
CCCCN1C(=O)NC(c2ccc(NC(=O)c3cccs3)cc2)C(C(=O)OC(C)C)=C1C (centres undefined)	i
CN(Cc1ccccc1)CC(O)COc1ccc(CNCCCN2CCCC2)cc1 (centres undefined)	i
Cc1nc(-c2nc3c(s2)CN(C(=O)CCc2cccnc2)CC3)cs1	i
S=c1nc2ccc3[nH]s[nH]c3c2n1	i
O=C(c1ccc2ccccc2c1)N1CCc2ccccc21	i
Fc1ccc(Nc2nc(NCc3ccco3)c3ccccc3n2)cc1	0.075µM*
COC(=O)c1c(S(=O)(=O)NCc2cccc(Cl)c2)sc2c1CCN(C(=O)C1CCCO1)C2 (centres undefined)	i
COC(=O)C1=C(O)C(=Cc2cc(C)n(-c3ccccc3C(F)(F)F)c2C)N=C1C	i
NC(=O)Oc1ccc(Cc2ccccc2)cc1	i
CCN1CCN(CC(O)COc2ccc(OC)cc2)CC1 (centres undefined)	i
O=C1c2ccccc2C2=Nc3ccccc3SC(c3ccccc3F)C12 (centres undefined)	0.24µM*
COC(=O)c1c(S(=O)(=O)N2CCN(C)CC2)sc2c1CCN(CCCc1ccccc1)C2	i
COc1ccc(C2=C(c3ccc(OC)cc3)C3(c4ccccc4)C(=O)C2(c2ccccc2)C2C(=O)N(c4ccc(C)cc4)C(=O)C23)cc1 (centres undefined)	i
COc1ccccc1C1CC(=O)N2CN(Cc3ccccc3)CSC2=C1C#N (centres undefined)	i
COc1cccc(C2(NC(=O)CCn3ccnc3-c3ccccc3)CCCC2)c1	i
O=C(Nc1ccc2nc3n(c(=O)c2c1)CCCCC3)C(=O)N1CCN(c2cccc(Cl)c2)CC1	i
c1ccc(C[C@H]2CN(c3ccccc3)CCN2CCNCCOc2ccccc2)cc1	i
CCOc1cc(C(=O)Nc2ccc(-c3nc4ccccc4[nH]3)cc2)cc(OCC)c1OCC	i
CC(Oc1ccc(Cl)cc1Cl)c1nc(-c2ccc(NC(=O)c3ccco3)cc2)no1 (centres undefined)	0.15µM*
CC(C)CC1C(c2ccc(Cl)cc2)C(C(=O)c2ccccc2)C2(C(=O)Nc3ccc(Br)cc32)N1C(=O)NCc1ccccc1 (centres undefined)	i
Cc1ccc(NC(=O)ON=C2CCCC2)cc1	i
COc1ccc2nc(C)cc(Nc3cccc(O)c3)c2c1	i
Cn1nc(C(C)(C)C)cc1C(=O)N1CCCN1C(=O)CNC(=O)c1ccco1	i
Oc1ccc(-c2cncnc2)cc1CNC1CCN(Cc2ccccc2)CC1	i
Cc1nc(-c2ccccc2)nc(C(=O)N2CCN(C(=O)NC3CCCCC3)C(C)C2)c1C(=O)OC(C)C (centres undefined)	i
CCOc1cccc(Nc2cc(C)nc3ncnn23)c1	i
C[n+]1ccc(C=Cc2ccc(Br)cc2)cc1	i
C[n+]1ccc(C=Cc2ccccc2F)c2ccccc21	i
Cc1cccc(-c2nc3cc(NC(=S)NC(=O)c4ccc(Cl)cc4)ccc3o2)c1	i
COc1ccc([C@@H]2C[C@H](OC(=O)c3ccc4c(c3)OCO4)C(=O)N2C)cc1	i
O=S(=O)(/C=C/c1ccccc1)NCCCCNc1ccnc2cc(Cl)ccc12	i
COc1cc(C2C3=C(CC(C)(C)CC3=O)Nc3ccccc3N2C(=O)C(C)C)cc(OC)c1OC (centres undefined)	i
COC(=O)CS(=O)c1ccccc1 (centres undefined)	i
Cc1ccc(C(C(=O)NC(C)(C)C)N(C(=O)c2ccc(-c3ccccc3)[nH]2)c2ccc(C3CCCCC3)cc2)o1 (centres undefined)	i
CN(CCCNc1ccnc2cc(Cl)ccc12)C(=O)c1ccc(Cl)c(Cl)c1	i

Another view of some results above:
mol | liver stage
Cn1nc(C(C)(C)C)cc1C(=O)N1CCCN1C(=O)CNC(=O)c1ccco1 | i
O=S(=O)(Oc1ccc2ccccc2c1Cc1c(OS(=O)(=O)c2ccccc2)ccc2ccccc12)c1ccccc1 | i

(more compounds)
SMILES	liver stage
Cc1cc(N2CCN(c3ccccn3)CC2)n2c(nc3ccccc32)c1C#N	i
CC(CC(=O)NCCCCNc1ccnc2cc(Cl)ccc12)CC(C)(C)C (centres undefined)	i
Cc1csc(NC(=O)C2c3ccccc3C(=O)N(CC(C)C)C2c2cccs2)n1 (centres undefined)	i
COc1ccc(CCNC(=O)CN(c2ccc(OC)c(OC)c2)S(=O)(=O)c2ccc(C)cc2)cc1OC	i
COc1ccc2[nH]c(=O)c(CN(C(=S)Nc3ccccc3OC)C3CCCC3)cc2c1	i
C[N+]1(CC(=O)NNc2c3ccccc3nc3ccccc23)CCOCC1	i
CC(=O)Nc1ccc2c(c1)C(=O)N(C(C(=O)NC1CCCCC1)c1ccc([N+](=O)[O-])cc1)[C@@H](c1ccccc1)C(=O)N2 (some centres undefined)	i
COC(=O)c1ccccc1NC(=O)CSc1nc2ccsc2c(=O)n1CCN1CCCC1	i
O=C1CCC(c2ccc(Cl)c(Cl)c2)c2ccc(O)cc21 (centres undefined)	i
c1cc2cc(CN3CCc4nc(N5CCCCC5)sc4C3)ccc2[nH]1	i
CCOC(=O)c1ccc(N(C(=O)Cc2c[nH]c3ccccc23)C(C(=O)NC2CCCCC2)c2cccnc2)cc1 (centres undefined)	i
CCCCCCN(C(=O)CCc1ccccc1)C(CC)c1nc2ccccc2c(=O)n1-c1ccc(Cl)cc1 (centres undefined)	i
Oc1ccc(-c2ccccc2)cc1CNCCCN1CCOCC1	i
Cc1cc(I)ccc1N1C(=O)C2C3c4ccccc4C(CO)(c4ccccc43)C2C1=O (centres undefined)	i
